Screening data from PubChem BioAssay.
rRNA inh HTS: reduced GFP signal of wild-type E. coli, primary screen, bacterial rRNA inhibitor project, GFP/RFP fluorescence, OD600, single point; E. coli WT GFP vs humanized-ribosome RFP mutants, 24 h; active compounds read low; DMSO median 0, no signal -100; GFP signal change (wild-type ribosome), % (test concentration not listed); 1.6% of 350,000 active;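 active means significant combined selectivity score with lowered wild-type GFP, culture density cut under 30%, mutant RFP and density less affected; inactive means any of these conditions unmet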; further: one replicate is shown; some compounds called inactive have numbers as strong as hits
AF4-AF9 inh: inhibitors of AF4 peptide binding to AF9, primary screen, biochemical, AlphaScreen, biotin-AF4 peptide, FLAG-AF9, single point. Protein AF-9 (Homo sapiens), P42568. inhibition, % at 10 µM. 0.47% of 350,000 active;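 active means every replicate reaching a set inhibition limit, whatever the replicate mean, cut at about 25% in these data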;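 further: 0% = plate neutral control median and 100% = total signal loss; the record names both 10 and 1 µM as test concentration; the first replicate is given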
Target sequence (P42568 whole entry, looked up): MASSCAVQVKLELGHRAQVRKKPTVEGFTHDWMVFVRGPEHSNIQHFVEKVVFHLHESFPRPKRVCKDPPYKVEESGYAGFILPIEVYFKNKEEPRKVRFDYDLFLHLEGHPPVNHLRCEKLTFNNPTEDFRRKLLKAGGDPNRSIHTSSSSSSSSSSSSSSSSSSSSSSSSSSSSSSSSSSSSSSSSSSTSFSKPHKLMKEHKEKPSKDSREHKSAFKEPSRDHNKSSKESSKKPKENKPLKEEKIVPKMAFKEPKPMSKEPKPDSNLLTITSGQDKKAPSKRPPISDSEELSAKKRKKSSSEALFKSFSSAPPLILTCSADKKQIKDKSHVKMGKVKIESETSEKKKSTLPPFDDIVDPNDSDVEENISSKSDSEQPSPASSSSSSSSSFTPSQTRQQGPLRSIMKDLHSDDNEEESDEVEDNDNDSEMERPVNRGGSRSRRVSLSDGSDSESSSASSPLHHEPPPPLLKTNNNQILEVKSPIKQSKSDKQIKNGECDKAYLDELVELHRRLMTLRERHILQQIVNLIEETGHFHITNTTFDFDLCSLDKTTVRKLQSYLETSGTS
FGF22 binding: binders of human FGF22 protein, primary screen, FGF22 synaptogenesis inhibitor project, biophysical, thermal shift, single point; recombinant FGF22 thermal shift, SYPRO orange fluorescence; percent of sucrose octasulfate shift, DMSO zero; calls only at 9.99 µM; 1.5% of 340,000 active; AID 651658, 2012;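 active means melting point raised past a set limit in the mean and every replicate; three in four hits are not shown here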
Target sequence (Q9HCT0 whole entry, looked up): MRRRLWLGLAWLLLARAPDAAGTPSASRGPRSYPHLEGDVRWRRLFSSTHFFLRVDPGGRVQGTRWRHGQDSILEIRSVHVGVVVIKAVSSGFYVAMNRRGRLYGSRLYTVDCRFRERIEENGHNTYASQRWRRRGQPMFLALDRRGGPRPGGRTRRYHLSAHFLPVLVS
rRNA inh HTS OD600: second read-out of rRNA inh HTS, no call of its own (marks repeat the call); OD600 change, %; measured here: OD600 growth;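 optical density of the mix in the first replicate; 0 = DMSO median and -100 = no signal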
rRNA inh HTS RFP: further read-out of rRNA inh HTS, marked with its call; RFP signal change, %; measured here: RFP humanized mutant strains;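 first replicate; 0 = DMSO median and -100 = no signal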
* hit, by the source's call; i = inactive. The list is partial; rates above refer to the full screens.

Key to letters – A = rRNA inh HTS; B = rRNA inh HTS OD600; C = rRNA inh HTS RFP; D = AF4-AF9 inh; E = FGF22 binding
1: CCC(=O)Nc1ccc2c(c1)OC[C@H](C)N(Cc1cncnc1)C[C@@H](C)[C@@H](OC)CN(C)C2=O
  A: 2; B: 6; C: -0.4; D: -0.6; E: i

2: Cn1cnc(S(=O)(=O)N[C@H]2CC[C@H](CC(=O)Nc3ccc(-c4ccccc4)cc3)O[C@@H]2CO)c1
  A: 0; B: -4; C: 2.4; D: 0.1; E: i

3: CNC(=O)C[C@@H]1CC[C@H]2[C@@H](COc3ccc(NC(=O)C4CCCCC4)cc3C(=O)N2C)O1
  A: 1; B: 13; C: 0.2; D: -0.7; E: i

4: O=C(COC(=O)c1ccccc1Cl)Nc1cccc(S(=O)(=O)N2CCCCC2)c1
  A: -10; B: -26; C: 1.6; D: 0.2; E: i

5: COc1ccc(S(=O)(=O)N(C)C[C@H]2OCCCC[C@H](C)Oc3ccc(NS(=O)(=O)c4cccs4)cc3C(=O)N([C@@H](C)CO)C[C@H]2C)cc1
  A: -1; B: 0; C: 4.5; D: 3.6; E: i

6: Cc1ccc(C(CC(=O)O)NC(=O)c2ccc(S(=O)(=O)N3CCCC3)cc2)cc1 (stereo not given)
  A: 6; B: 6; C: -2.2; D: -4.8; E: i

7: Cc1ccc(S(=O)(=O)Nc2ccc3c(c2)C(=O)N([C@@H](C)CO)C[C@@H](C)[C@@H](CN(C)S(=O)(=O)c2cn(C)cn2)OCCCC[C@H](C)O3)cc1
  A: 1; B: 0; C: -4.4; D: 0.9; E: i

8: CO[C@@H]1CN(C)C(=O)c2ccc(NC(C)=O)cc2OC[C@@H](C)N(C(=O)Cc2ccccn2)C[C@@H]1C
  A: 1; B: 7; C: -1.4; D: -0.5; E: i

9: C[C@H](CO)N1C[C@H](C)[C@@H](CN(C)C(=O)c2ccccc2)Oc2ncc(C#Cc3ccccc3)cc2C1=O
  A: 1; B: -22; C: 8.4; D: 0.4; E: i

10: O=C(c1ccc(-c2ccccc2)cc1)N1CCC2CC1c1cc(-c3ccc4c(c3)OCO4)ccc12 (stereo not given)
  A: 16; B: 17; C: 1.4; D: 0.4; E: i

11: Cc1noc(C)c1NC(=O)Nc1ccc2c(c1)C(=O)N([C@H](C)CO)C[C@@H](C)[C@@H](CN(C)Cc1ccc(Cl)c(Cl)c1)O2
  A: -2; B: -9; C: 1.8; D: 1.6; E: i

12: Cc1cc(Br)c(NC(=O)CN2C(=O)NC3(CCOc4ccccc43)C2=O)c(Br)c1 (stereo not given)
  A: -11; B: -8; C: -3.5; D: 2.7; E: i

13: C[C@H]1CN([C@@H](C)CO)C(=O)c2cccc(NC(=O)C3CC3)c2O[C@H]1CN(C)Cc1ccc(Oc2ccccc2)cc1
  A: -7; B: -14; C: -1.5; D: -1.2; E: i

14: COc1ccc(S(=O)(=O)N(C)C[C@@H]2Oc3ccc(NC(=O)c4ccncc4)cc3CC(=O)N([C@H](C)CO)C[C@@H]2C)cc1
  A: -6; B: -12; C: 2.2; D: 1.0; E: i

15: COc1ccc2c3c([nH]c2c1)[C@@H](CO)N(C(=O)c1ccc(F)cc1)CC31CCN(C(=O)CC2CC2)CC1
  A: 1; B: -5; C: 1.9; D: -0.3; E: i

16: COc1cccc(-c2ccc3c(c2)O[C@H](CN(C)Cc2ccncc2)[C@@H](C)CN([C@H](C)CO)S3(=O)=O)c1
  A: -19; B: -23; C: 1.9; D: 1.6; E: i

17: CC(C)C[C@H]1CNC(=O)C(=O)N1CC1CCN(CC2CCC(C)CC2)CC1 (stereo not given in full)
  A: -6; B: -2; C: -4.1; D: -4.2; E: i

18: Cc1noc(C)c1NC(=O)Nc1ccc2c(c1)C(=O)N(C)[C@H]1CC[C@@H](CC(=O)N[C@@H]3CCN(Cc4ccccc4)C3)O[C@@H]1CO2
  A: 3; B: 5; C: -0.3; D: 0.9; E: i

19: CCCNC(=O)N1CCC2(CC1)CN(C(=O)c1ccccc1)[C@H](CO)c1[nH]c3cc(OC)ccc3c12
  A: -1; B: 3; C: 3.3; D: 1.1; E: i

20: COc1ccc(CN(C)C[C@H]2OCc3cnnn3CCCC(=O)N([C@@H](C)CO)C[C@@H]2C)cc1
  A: 2; B: 8; C: 1.3; D: 0.0; E: i

21: COc1ccc(NC(=O)Nc2ccc3c(c2)CC(=O)N([C@@H](C)CO)C[C@H](C)[C@@H](CN(C)S(=O)(=O)c2c(C)noc2C)O3)cc1
  A: 0; B: -2; C: 0.2; D: 6.4; E: i

22: N#C[C@@H]1[C@@H](c2ccc(-c3ccncc3)cc2)[C@@H](CO)N1C(=O)C1CCCC1
  A: 1; B: 1; C: -0.9; D: -2.2; E: i

23: CO[C@H](CN(C)C(=O)Nc1ccc(C(F)(F)F)cc1)[C@H](C)CN(Cc1ccccc1Cl)[C@H](C)CO
  A: -58; B: -72; C: -15; D: 1.4; E: i

24: COc1ccc(S(=O)(=O)Nc2ccc3c(c2)C(=O)N([C@@H](C)CO)C[C@@H](C)[C@H](CN(C)C(=O)CCC(F)(F)F)OCCCC[C@H](C)O3)cc1
  A: -1; B: -4; C: 1.6; D: -3.5; E: i

25: C[C@H](CO)N1C[C@H](C)[C@H](CN(C)CC2CCCCC2)Oc2ccc(NC(=O)Cc3ccccc3)cc2C1=O
  A: 3; B: 6; C: 0.9; D: -0.6; E: i

26: CC(=O)N1CCN(S(=O)(=O)c2cccc(C(=O)NC3CCCC(C)C3C)c2)CC1 (stereo not given)
  A: 8; B: 6; C: 4.0; D: -21; E: i

27: CCCC(=O)Nc1ccc2c(c1)OC[C@H](C)N(Cc1ccc(-c3ccccn3)cc1)C[C@H](C)[C@@H](OC)CN(C)C2=O
  A: -1; B: -8; C: 4.2; D: -0.5; E: i

28: CCCC(=O)Nc1ccc2c(c1)OC[C@@H](C)N(Cc1ccccc1F)C[C@@H](C)[C@@H](OC)CN(C)C2=O
  A: -3; B: 2; C: 3.5; D: 0.3; E: i

29: COc1cccc(S(=O)(=O)Nc2ccc3c(c2)[C@@H]2C[C@H](CC(=O)NCc4ccccc4F)O[C@@H](CO)[C@@H]2O3)c1
  A: -7; B: -25; C: 3.8; D: 3.1; E: i

30: CCCNC(=O)C[C@@H]1C[C@@H]2c3cc(NC(=O)COC)ccc3O[C@@H]2[C@H](CO)O1
  A: 5; B: 9; C: -0.5; D: -4.3; E: i

31: O=C(Nc1ccccc1)OC[C@@H]1CSCCS(=O)(=O)N1
  A: 10; B: 7; C: 3.0; D: -0.6; E: i

32: O=C1NC(Cc2ccccc2)c2nc3cc(F)c(F)cc3c(=O)n2-c2cc3ccccc3cc21 (stereo not given)
  A: 2; B: 18; C: 4.9; D: 1.0; E: i

33: O=C(Cc1ccccn1)NCC[C@H]1CC[C@H](NC(=O)Nc2ccc(F)cc2)[C@H](CO)O1
  A: 3; B: 0; C: -2.8; D: 0.7; E: i

34: C/C=C/c1ccc2c(c1)O[C@@H](CN(C)C(=O)NC1CCCC1)[C@@H](C)CN([C@H](C)CO)S2(=O)=O
  A: -6; B: -3; C: -1.6; D: -1.3; E: i

35: COCC(=O)Nc1ccc2c(c1)OC[C@@H](C)N(Cc1ccccc1)C[C@H](C)[C@H](OC)CN(C)C2=O
  A: -3; B: -1; C: 2.5; D: 6.2; E: i

36: O=c1c2cc([N+](=O)[O-])ccc2sn1-c1ccccc1
  A: 10; B: 11; C: 2.5; D: -9.9; E: i

37: C[C@H]1CN([C@@H](C)CO)C(=O)c2cc(NC(=O)CCCN(C)C)ccc2O[C@H]1CN(C)S(=O)(=O)c1ccccc1
  A: 5; B: 6; C: -1.3; D: -2.0; E: i

38: Cc1ccc(S(=O)(=O)NCc2ccccc2)cc1C(=O)NCC(=O)Nc1c(C)cccc1C
  A: -3; B: -6; C: -0.1; D: -0.8; E: i

39: C[C@@H]1CN([C@H](C)CO)S(=O)(=O)c2ccc(C#CC3CC3)cc2O[C@H]1CN(C)Cc1ccncc1
  A: -38; B: -59; C: 8.5; D: 6.1; E: i

40: Cc1noc(C)c1-c1ccc(C(=O)NCc2cccc(Cl)c2)c2occc12
  A: -12; B: -46; C: 3.3; D: -1.0; E: i

41: Cc1noc(C)c1NC(=O)N(C)C[C@H]1Oc2ccc(NC(=O)CCCCCC(=O)Nc3ccccc3N)cc2C(=O)N([C@H](C)CO)C[C@@H]1C
  A: 1; B: -3; C: 0.1; D: -1.3; E: i

42: CCc1ccccc1OCC(=O)Nc1ccc(F)c(S(=O)(=O)N2CCOCC2)c1
  A: -23; B: -34; C: -10; D: -6.1; E: i

43: CC(=O)NC(C)(c1ccccc1)c1nc(-c2cccc(F)c2)cs1 (stereo not given)
  A: -1; B: -23; C: -1.5; D: -0.7; E: i

44: COc1ccc2c3c(n(C)c2c1)[C@H](CO)N(C(=O)c1ccccn1)CC31CCN(C(=O)c2ccccn2)CC1
  A: 1; B: 11; C: -2.2; D: -0.8; E: i

45: Cc1ccc(S(=O)(=O)N2CCOCC2)cc1C(=O)Nc1cc(S(=O)(=O)N2CCCCC2)ccc1O
  A: -6; B: -3; C: 3.1; D: 1.3; E: i

46: C[C@H](CO)N1C[C@H](C)[C@H](CN(C)C(=O)CC2CC2)Oc2cc(C#C[C@@H](C)O)ccc2S1(=O)=O
  A: 1; B: 7; C: -2.8; D: 0.0; E: i

47: C[C@@H]1CN([C@@H](C)CO)C(=O)c2cc(/C=C/c3ccccc3)cnc2O[C@@H]1CN(C)C(=O)NC1CCCCC1
  A: -1; B: -9; C: 2.9; D: 4.1; E: i

48: O=C(CN1CCOCC1)NCC[C@@H]1CC[C@@H](NC(=O)Nc2ccc(F)cc2)[C@H](CO)O1
  A: 0; B: 2; C: -1.2; D: -0.2; E: i

49: C[C@H](CO)N1C[C@H](C)[C@H](CN(C)S(C)(=O)=O)OCCCC[C@H](C)Oc2ccc(NC(=O)Nc3ccccc3)cc2C1=O
  A: -2; B: -5; C: 0.1; D: 0.6; E: i

50: CO[C@@H]1CN(C)C(=O)c2cc(NS(C)(=O)=O)ccc2OC[C@@H](C)N(C(=O)C2CCOCC2)C[C@H]1C
  A: -1; B: -1; C: 0.4; D: 4.0; E: i

Values by screen from the entries so far.
Nos. 24–33 in rRNA inh HTS OD600: -4, 6, 6, -8, 2, -25, 9, 7, 18, 0

Later entries:
Key to letters – A = rRNA inh HTS; B = rRNA inh HTS OD600; C = rRNA inh HTS RFP; D = AF4-AF9 inh; E = FGF22 binding
51: C[C@H](CO)N1C[C@H](C)[C@H](CN(C)CC2CCCCC2)Oc2ccc(NS(C)(=O)=O)cc2CC1=O
  A: 3; B: -2; C: 0.6; D: -1.1; E: i

52: O=C(Nc1cccc(Cl)c1)N[C@@H]1CC[C@@H](CCNC(=O)C2CC2)O[C@@H]1CO
  A: -3; B: 2; C: 1.3; D: 1.0; E: i

53: COCC#Cc1ccc2c(c1)O[C@@H](CN(C)S(=O)(=O)c1cccc(OC)c1)[C@H](C)CN([C@H](C)CO)S2(=O)=O
  A: 0; B: -23; C: -0.6; D: 3.2; E: i

54: CCC(=O)N1C[C@@H](C)[C@@H](OC)CN(C)C(=O)c2ccc(NS(C)(=O)=O)cc2OC[C@H]1C
  A: 1; B: 5; C: -0.6; D: -4.1; E: i

55: COCC#Cc1ccc2c(c1)O[C@@H](CN(C)C(=O)c1ccccc1F)[C@H](C)CN([C@H](C)CO)S2(=O)=O
  A: -4; B: -2; C: -5.4; D: 1.4; E: i

56: COc1ccc(S(=O)(=O)N2CC[C@H]3[C@H](CO)Nc4ccc(C#Cc5ccccc5OC)cc4[C@H]32)cc1
  A: -2; B: -4; C: -4.8; D: 0.6; E: i

57: O=C(C[C@H]1C[C@H]2c3cc(NS(=O)(=O)c4ccc(F)cc4)ccc3O[C@H]2[C@H](CO)O1)N1CCc2ccccc2C1
  A: -8; B: -33; C: -4.1; D: 2.6; E: i

58: CSc1nnnc2ccccc12
  A: 9; B: 7; C: -3.0; D: 0.3; E: i

59: C[C@@H]1CN([C@H](C)CO)C(=O)c2cc(-c3cccnc3)cnc2O[C@H]1CN(C)C(=O)Nc1ccc2c(c1)OCO2
  A: -2; B: 1; C: -2.1; D: -2.9; E: i

Single records (already shown):
`COCC#Cc1ccc2c(c1)O[C@@H](CN(C)C(=O)c1ccccc1F)[C@H](C)CN([C@H](C)CO)S2(=O)=O` is entered as rRNA inh HTS = -4; rRNA inh HTS OD600 = -2; rRNA inh HTS RFP = -5.4; AF4-AF9 inh = 1.4; FGF22 binding = i
`C[C@H](CO)N1C[C@H](C)[C@H](CN(C)CC2CCCCC2)Oc2ccc(NS(C)(=O)=O)cc2CC1=O` is entered as rRNA inh HTS = 3; rRNA inh HTS OD600 = -2; rRNA inh HTS RFP = 0.6; AF4-AF9 inh = -1.1; FGF22 binding = i
